# PLAP act – human PLAP activation; P05187; purified PLAP enzyme, luminescent substrate read-out; active compounds read high; activation fold at 20 µM; hit rate 1.2% among 96,000; in the data active means activation fold above about 2
# Target sequence (P05187 whole entry, looked up): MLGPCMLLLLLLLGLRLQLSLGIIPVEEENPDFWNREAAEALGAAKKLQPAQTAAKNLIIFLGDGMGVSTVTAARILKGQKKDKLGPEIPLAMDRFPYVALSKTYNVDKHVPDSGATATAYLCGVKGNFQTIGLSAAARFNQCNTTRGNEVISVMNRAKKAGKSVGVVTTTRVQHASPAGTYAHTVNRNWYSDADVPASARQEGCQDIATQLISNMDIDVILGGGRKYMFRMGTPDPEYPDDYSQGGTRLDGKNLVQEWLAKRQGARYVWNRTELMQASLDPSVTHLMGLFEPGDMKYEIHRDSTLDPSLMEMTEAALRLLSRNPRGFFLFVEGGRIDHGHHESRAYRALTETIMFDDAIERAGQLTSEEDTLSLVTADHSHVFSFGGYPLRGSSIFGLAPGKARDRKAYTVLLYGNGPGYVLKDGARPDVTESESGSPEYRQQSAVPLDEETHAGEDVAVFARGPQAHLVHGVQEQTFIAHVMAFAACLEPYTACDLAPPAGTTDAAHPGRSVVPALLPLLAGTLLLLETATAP
# Pyk2 oligo antag – blocks oligomerization of human Pyk2 in cells. AID 1347419. Q293 cells, Pyk2 FERM NanoBiT luminescence; active compounds read low. z-score (the deposit names both 25 µM and 10 µM). hit rate 0.83% among 99,000;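 active means Z-score of -3 or lower, scaled per plate to the spread of control and sample wells; inactive means z-score above -3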;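 further: negative z-score means lost luminescence so less FERM oligomerization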
# PostGolgi yeast – growth inhibition of a yeast mutant, post-Golgi transport screen; inhibition, % at 10 µM; hit rate 0.9% among 98,000; post-Golgi transport phenotypic cell assay; AID 739; in the data active means inhibition above about 30%;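 further: yeast cells grown in 1536-well plates; yeast grown about 18 h at 30C before absorbance read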
# EphB4 ephrin blk – antagonists of human EphB4-ephrin-B2 interaction; hit rate 0.15% among 97,000; EphB4 LBD / TNYL-RAW-Alexa532 peptide, fluorescence polarization; P54760; inhibition, % at 7 µM;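 active means inhibition above the screen-wide mean inhibition plus 3 SD, cut at about 15% in these data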;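 further: 0% = DMSO wells and 100% = excess unlabeled TNYL-RAW peptide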
# E coli WT exp – blocks growth of wild type E. coli BW25113; hit rate 0.15% among 98,000; growth inhibition, % at 100 µM; OD600 absorbance;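 active means growth inhibition above about 50% at one test dose, limit read from the data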;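 further: growth measured after 20 h incubation at 37 °C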
# * = called active by the depositor; · = not tested or not shown. The list is partial (hit frequency here may not be typical).
SMILES,PLAP act,Pyk2 oligo antag,PostGolgi yeast,EphB4 ephrin blk,E coli WT exp
Cc1nc(NC(=O)c2ccco2)sc1-c1csc(Nc2ccc(Cl)cc2Cl)n1,1.2,·,-3,1,-7
COC(=O)c1ccc(Sc2ccccc2NS(=O)(=O)c2ccc(C)cc2)nc1,1.3,0.22,24,6,-5
CCOC(=O)C1=C(C)NC(=O)NC1c1ccoc1 (configuration not stated),1,0.24,-3,-4,5
COc1ccc(NC(=O)C(CCS(C)(=O)=O)NC(C)=O)cc1 (configuration not stated),1.2,0.47,2,4,-2
COc1ccccc1Oc1ccc2c(c1)C(=O)N(c1ccc(C)cc1)C2=O,1,-0.78,0,-8,-10
CCOc1ccccc1C(=O)N(Cc1cccs1)C1CCS(=O)(=O)C1 (configuration not stated),1,0.55,-1,-4,2
CNCCCC12CCC(c3ccccc31)c1ccccc12,1.4,·,9,-2,19
CC1CCN(CC(C)CNC(=O)c2cc(-c3ccccn3)nc3ccccc23)CC1 (configuration not stated),1.3,0.29,3,1,-1
O=S(=O)(NCCSCc1ccc(Cl)cc1Cl)c1ccc2c(c1)OCCO2,0.8,-2.3,0,1,-13
CCN(C(=O)COc1cc(=O)n(CC)c2ccccc12)c1cc(Cl)ccc1OC,1.6,·,-4,-4,0
COc1ccc(/C=N/N=C/c2ccc(OC)c(O)c2)cc1O,1.2,-0.06,1,-2,8
COc1cccc(Cn2nnc3c(=O)[nH]c(C4CCCN(C(=O)c5ccccc5Cl)C4)nc32)c1 (configuration not stated),1.3,-1,5,-5,0
CC(=O)Nc1c(S(=O)(=O)c2ccccc2)c2nc3ccccc3nc2n1Cc1ccccc1,1.1,-0.16,-2,-10,-1
Cc1ccc(S(=O)(=O)c2cc(N3CCOCC3)nc(-c3ccccc3)n2)cc1,1,-1.1,-2,0,-7
CCCCNc1cc(=O)n(C)c(=O)n1C,0.8,0.83,2,-2,0
COCc1cc(C)nc(OCC(=O)N/N=C/c2ccc(-c3cccc([N+](=O)[O-])c3)o2)c1C#N,1.1,·,-2,-8,2
COc1cccc(C2c3c(-c4ccccc4)n[nH]c3C(=O)N2c2ccc(C(=O)O)cc2)c1 (configuration not stated),1,1.1,6,-2,0
CC(=O)Nc1nc2ccc(Br)cc2s1,0.9,2.9,19,-4,9
Cc1ccccc1OCC1Cn2c(nc3c2c(=O)[nH]c(=O)n3C)O1 (configuration not stated),1,-1,13,6,0
COc1cc(Cl)c(C)cc1NC(=O)CNC(=O)Cn1cnc2ccccc2c1=O,1.2,1.2,5,3,-1

# Sorted by the number under PLAP act (low to high): three from the list above
compound,PLAP act
CCCCNc1cc(=O)n(C)c(=O)n1C,0.8
COc1cccc(C2c3c(-c4ccccc4)n[nH]c3C(=O)N2c2ccc(C(=O)O)cc2)c1 (configuration not stated),1
COC(=O)c1ccc(Sc2ccccc2NS(=O)(=O)c2ccc(C)cc2)nc1,1.3

# Going on with the list:
SMILES,PLAP act,Pyk2 oligo antag,PostGolgi yeast,EphB4 ephrin blk,E coli WT exp
Cc1cccc(-c2nnc(SCC(=O)NCc3ccc4c(c3)OCO4)n2C)c1,0.9,1,0,-1,5
c1coc(CNc2ncnc3nc[nH]c23)c1,1.4,·,3,·,7
O=C(Nc1cccc(Cl)c1)OCc1cn(-c2ccc(Cl)cc2)nn1,1,0.41,-3,-6,-4
CCN(CC(=O)Nc1ccc(N2CCOCC2)cc1)Cc1nc2ccccc2c(=O)[nH]1,2.1*,0.4,9,4,2
O=C(NCc1ccco1)c1nc2c(nnn2Cc2cccc(Cl)c2)c(=O)[nH]1,1.4,2.5,-10,8,7
CCCCOC(=O)Nc1cccc(C(=O)OCC)c1,1.1,-0.5,5,-6,-2
COCCCNC(=O)CC(NS(=O)(=O)c1ccc(C)cc1)c1ccc(OC)cc1 (configuration not stated),1.4,-0.77,-13,2,-5
CN1C(=O)CC(NNC(=O)c2ccc(Cl)cc2)C1=O (configuration not stated),1.1,0.27,4,2,11
CCC1CCCCN1CCCNC(=O)Cn1nc(-c2ccc(C)cc2)ccc1=O (configuration not stated),1.4,0.56,6,-4,1
O=C(c1ccc2c(c1)C(=O)N(Cc1ccco1)C2=O)N1CCOCC1,0.9,0.35,7,0,-7
Cc1n[nH]c(=S)c2nn(-c3ccccc3)c(C)c12,1.1,·,-17,-3,4
CCc1nc(SCC(=O)c2cccs2)c2oc3ccccc3c2n1,1.1,-2.4,0,-1,-7
Cc1c(C(=O)O)sc2nc(C)n(C)c(=O)c12,1,0.29,-1,2,3
COc1ccc(N2C(=O)CSC23CCC(C(C)(C)C)CC3)cc1 (configuration not stated),1.1,-0.93,5,10,3
COCCn1nc2cc(C(=O)NCC34CC5CC(CC(C5)C3)C4)ccc2c1OC,1.3,·,-2,1,4
Cc1ccc(NS(=O)(=O)c2ccc(NC(=O)c3cccc(NC(=O)C(C)C)c3)cc2)cc1,1,-2.6,17,3,-9
O=C(Cn1c(=O)oc2ccccc21)NC(=O)NCc1ccccc1,0.9,-0.5,4,9,-1
O=C(Nc1ccc(-c2nc3ccccc3[nH]2)cc1)c1ccc2c(c1)OCO2,1,-0.43,-5,8,-7
C/C(=N/NC(=O)c1ccc(NC(=O)c2ccc(F)cc2)cc1)c1ccccc1,1,0.43,-7,5,-5
CN(CCCNC(=O)c1cccn2c(=O)c3ccccc3nc12)Cc1ccccc1,1.5,-1,9,-5,2

# At a glance, part of the list above:
SMILES,PLAP act,Pyk2 oligo antag,PostGolgi yeast,EphB4 ephrin blk,E coli WT exp
Cc1cccc(-c2nnc(SCC(=O)NCc3ccc4c(c3)OCO4)n2C)c1,0.9,1,0,-1,5
c1coc(CNc2ncnc3nc[nH]c23)c1,1.4,·,3,·,7
O=C(Nc1cccc(Cl)c1)OCc1cn(-c2ccc(Cl)cc2)nn1,1,0.41,-3,-6,-4

# Additional structures
SMILES,PLAP act,Pyk2 oligo antag,PostGolgi yeast,EphB4 ephrin blk,E coli WT exp
Cc1ccc(NC(=O)c2ccc(S(=O)(=O)N3CCCCC3)cc2)cc1,1,-1.4,-5,0,-5
O=C(NNS(=O)(=O)c1ccc(Cl)cc1)c1sccc1-n1cccc1,1.1,-1.2,-5,2,7
O=[N+]([O-])c1ccc2nccn2c1,1,1.3,3,3,3
Cc1ccnn1CC(=O)N/N=C/c1ccco1,0.8,-0.5,5,2,0
CCCc1noc2c1/C(=N\O)CCC2,0.9,0.31,14,8,5
Cc1cccc(Nc2ccccc2)c1,1.2,-0.49,-6,·,-3
Cc1cnc(C(=O)OCC(=O)N(C(C)C)C(C)C)cn1,1.1,-0.39,14,6,7
CC(NC(=O)c1ccccc1Br)c1ccc2c(c1)CCCC2 (configuration not stated),1,-0.62,1,9,-6
C=C(C)C1Cc2nc(N)nc(C)c2C1 (configuration not stated),1.1,0.34,14,-6,7
CCN(CC)S(=O)(=O)c1ccc2c(c1)nc(SCC(=O)N1CCOCC1)n2-c1ccccc1OC,1.4,-2.8,1,-5,-6
Cc1[nH]c2ccccc2c1C(c1ccccn1)N1CCC(C)CC1 (configuration not stated),1.3,0.22,-7,-1,6
COc1ccc(C(=O)N/C(=C\c2cccs2)c2nc3ccccc3[nH]2)cc1OC,1,-0.36,28,9,3
C=CCn1c(SCc2nc3ccccc3[nH]2)nnc1-c1cccc(OC)c1,1.5,-0.38,3,4,8
O=C(NC(=S)Nc1ccc(N2CCCCC2)c(Cl)c1)c1ccc2c(c1)OCCO2,1.1,0.99,4,-5,-19
Cc1ccc(S(=O)(=O)Nc2nc(C)cc(NCCN)n2)cc1,1,0.87,-10,-18,-9
COc1ccccc1CCN1C(=S)NC(C)(C)CC1(C)O (configuration not stated),1.1,-0.32,-2,1,11
COc1cccc(C(=O)Nc2ccc(NC(=O)c3ccco3)cn2)c1,0.9,1.7,15,4,-7
Cc1ccccc1Oc1ccc(-c2nc(N)nc(N)n2)cc1,0.9,-0.48,10,-7,2
O=C1NCCCC1C(=O)Nc1ccccc1C(F)(F)F (configuration not stated),1.1,1.2,-7,3,-3
N#Cc1nc(-c2cccs2)oc1NCc1ccccc1,0.9,-1.4,-1,1,17

# Entries from the list above with fluorine:
SMILES,PLAP act,Pyk2 oligo antag,PostGolgi yeast,EphB4 ephrin blk,E coli WT exp
C/C(=N/NC(=O)c1ccc(NC(=O)c2ccc(F)cc2)cc1)c1ccccc1,1,0.43,-7,5,-5
O=C1NCCCC1C(=O)Nc1ccccc1C(F)(F)F (configuration not stated),1.1,1.2,-7,3,-3

# Continuation.
SMILES,PLAP act,Pyk2 oligo antag,PostGolgi yeast,EphB4 ephrin blk,E coli WT exp
O=C1NN(c2ccccc2)C(=O)/C1=C\c1ccccc1OCC(=O)N1CCOCC1,1,-0.08,-3,0,-8
CCCOc1cccc(-c2cc(-c3n[nH]c(=S)n3CC)c3ccccc3n2)c1,1.4,-0.96,-14,3,3
CCSc1nnc(NC(=O)CSc2nnc(Cc3cccn3C)n2-c2ccc(C)cc2)s1,0.9,-0.04,-3,2,-11
CCC(Sc1nc(C)cc(=O)[nH]1)C(=O)Nc1nc2c(s1)CCCC2 (configuration not stated),1.3,-0.07,7,-1,1
Cc1cccc(/C=N/n2c(C)nnc2C)c1,1,0.05,-1,5,5
O=S(=O)(NC1CCCCC1NCc1ccco1)c1ccc(Cl)cc1 (configuration not stated),1.4,0.55,-7,4,10
CC(=O)[C@@H]1[C@@H]2C(=O)N(C3CCCCC3)C(=O)[C@@H]2C2c3ccccc3C=CN21 (some centres not stated),1.5,·,3,3,2
Cc1ccsc1-c1nc(-c2ccccc2)c(-c2ccccc2)[nH]1,1,-1.6,-2,-1,-5
Cc1nn2c(c1-c1ccccc1)NC1=C(C(=O)CCC1)C2c1ccccc1 (configuration not stated),1.2,-2.8,5,3,-1
O=C(c1cccc(F)c1)N1C2C=CC(C2)C1(C(F)(F)F)C(F)(F)F (configuration not stated),1,-0.26,-1,-3,9
CCOC(=O)c1c(C)[nH]c(C(=O)COC(=O)c2ccccc2NC(=O)c2ccco2)c1C,1.1,-0.4,8,-5,-8
CCOC(=O)c1cnn(-c2nc(-c3ccc(F)cc3)cs2)c1C(F)(F)F,0.7,-1.3,0,-7,-1
Nc1n[nH]c(-c2ccccc2)n1,1.2,0.41,-2,3,1
Cc1ccc2c(c1)N(CCC(=O)NCc1ccc3c(c1)OCO3)C(=O)CO2,1,-0.37,-6,-8,-5
Cc1ccc(NC2=C(C(=O)c3ccccc3)N(C)S(=O)(=O)c3ccccc32)cc1,0.9,-2.7,-6,-5,-13
Cc1ccc(C(=O)Nc2cc3c(oc2=O)CCCC3=O)cc1,1,-0.76,3,2,1
CCCCCn1nc(-c2ccccc2)c2nc3ccccc3nc21,1.1,0.46,-4,6,-4
O=C(CSc1nnc(-c2cccnc2)o1)Oc1ccccc1,1,0.08,2,0,6
Cc1cc(C(=O)N/N=C/C=C/c2ccc3c(c2)OCO3)n[nH]1,1.7,-1.3,-5,2,6
CCCS(=O)(=O)N1CCC(C(=O)N2CCN(Cc3ccccc3)CC2)CC1,1.2,0.38,3,2,4

# One compound at a time, from the list above.
# Nc1n[nH]c(-c2ccccc2)n1 across the screens: PLAP act = 1.2; Pyk2 oligo antag = 0.41; PostGolgi yeast = -2; EphB4 ephrin blk = 3; E coli WT exp = 1
# O=S(=O)(NC1CCCCC1NCc1ccco1)c1ccc(Cl)cc1 (configuration not stated) across the screens: PLAP act = 1.4; Pyk2 oligo antag = 0.55; PostGolgi yeast = -7; EphB4 ephrin blk = 4; E coli WT exp = 10
# CCSc1nnc(NC(=O)CSc2nnc(Cc3cccn3C)n2-c2ccc(C)cc2)s1 across the screens: PLAP act = 0.9; Pyk2 oligo antag = -0.04; PostGolgi yeast = -3; EphB4 ephrin blk = 2; E coli WT exp = -11

# Next part.
SMILES,PLAP act,Pyk2 oligo antag,PostGolgi yeast,EphB4 ephrin blk,E coli WT exp
CCOC(=O)c1c(NC(=O)C2C3CCC(O3)C2C(=O)O)sc(C)c1-c1ccc(C)cc1 (configuration not stated),1.4,0.83,-4,-1,-5
CCC(C)n1c(C)nc2c(c1=O)c1nc3ccccc3nc1n2CCC1=CCCCC1 (configuration not stated),1,-1.6,8,3,-5
COc1cc(CNCCN2CCOCC2)ccc1OCc1ccc(Cl)cc1Cl,1.5,0.82,-3,-1,12
CCCCn1c(SC(C)C(=O)c2ccc(OC)cc2)nc2cc(S(N)(=O)=O)ccc21 (configuration not stated),1,-0.27,-5,8,0
CC(=O)c1cn(CCCCCCCCCCn2cc(C(C)=O)c(=O)[nH]c2=O)c(=O)[nH]c1=O,0.9,·,-16,-3,-4
COc1c(Cl)cnn(-c2ccc(C)cc2)c1=O,1.2,1.6,-17,-2,6
Nc1cccnc1Sc1ccc(Cl)cc1,0.9,0.18,-7,0,6
Cc1ccc(S(=O)(=O)N2CCN(c3nc(C)nc4sc5c(c34)CCC(C)C5)CC2)cc1 (configuration not stated),1.4,·,-2,-10,-8
Oc1ccc2oc3c(c2c1)CCCC3,1.1,-0.69,2,4,16
